AmpC inh no det: Promiscuous and Specific Inhibitors of AmpC Beta-Lactamase (assay without detergent). Potency, µM (top dose mostly 28.7 µM), for the others: at the highest dose activity change, negative = inhibition. P00811. hit rate 1.8% among 71,000. AID 585, 2007. AmpC nitrocefin hydrolysis, absorbance 480 nm, no detergent; potencies from a single point are estimates; active = falling curve, for most hits resting on a single point; inconclusive = weak or doubtful change; inactive = flat or rising curve; further: % of control where 0% means no effect; about half of the hits show no inhibition at the top dose; a quarter of the inactives give rising signals
Target sequence (P00811 whole entry, looked up): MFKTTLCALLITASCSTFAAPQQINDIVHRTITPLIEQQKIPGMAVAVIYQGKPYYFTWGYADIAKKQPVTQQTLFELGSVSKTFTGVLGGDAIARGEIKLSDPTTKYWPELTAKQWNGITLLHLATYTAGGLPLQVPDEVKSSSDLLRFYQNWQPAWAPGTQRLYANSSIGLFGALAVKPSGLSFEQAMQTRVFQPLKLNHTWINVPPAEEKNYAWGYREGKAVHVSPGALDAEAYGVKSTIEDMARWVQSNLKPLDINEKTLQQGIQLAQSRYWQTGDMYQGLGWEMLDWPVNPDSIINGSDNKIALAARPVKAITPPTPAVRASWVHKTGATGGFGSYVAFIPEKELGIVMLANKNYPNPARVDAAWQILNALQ
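AmpC in 20 mM phosphate buffer pH 7.0 was preincubated 15 min at room temperature with compounds. Nitrocefin (800 uM stock) was then added and hydrolysis followed at 480 nm every 20 s for 4 min.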
The depositor's hits bear a star; ? = inconclusive; & = joins results of further samples; [ ] = dose if it differs, or a comment. Potency means the concentration at half of the fitted maximal effect. The list is partial; rates above refer to the full screens.

SMILES,AmpC inh no det
Cc1ccc(Nc2ncnc3nc[nH]c23)cc1Cl,40%
CCCCc1ccc(NC(=O)COCC)cc1,12%
COc1cccc(C2c3c(oc4ccc(F)cc4c3=O)C(=O)N2CCCN2CCOCC2)c1 (stereo unspecified),39%
CCOC(=O)c1c(CN(C)C)n(C)c2ccc(OC(C)=O)cc12,-7%
O=C(O)C1CCCN1C(=O)c1cncc(Br)c1 (stereo unspecified),-1%
COc1ccc(NC(=O)c2cccnc2)c(OC)c1,-5%
Cc1ccccc1NC(=O)c1ocnc1C,4µM*[single pt active]
Cc1cc(C)nc(NC(=O)CCCC(=O)O)c1,-10%
O=C(CN(Cc1ccco1)C(=O)CNS(=O)(=O)c1ccc(Cl)cc1)NCc1ccc(F)cc1,-5%
O=C(O)CCCC(=O)Nc1cccc2cccnc12,10%
COC1=C(OC)C(=O)c2ccccc2C1=O,-7%
O=C(O)C[C@H]1NCc2cc3ccccc3nc21,-4%[5.75 µM]
CCn1c2ccccc2c2nnc(SCC(=O)c3ccccc3)nc21,-2%
Cc1ccccc1-c1noc(-c2ccccc2C(=O)N2CCCC2)n1,117%
C/C(Cl)=C/Cn1c(N2CCCC2)nc2c1c(=O)n(C)c(=O)n2C,40%

The final five records of the section before come first, to join the parts:
SMILES,AmpC inh no det
COC1=C(OC)C(=O)c2ccccc2C1=O,-7%
O=C(O)C[C@H]1NCc2cc3ccccc3nc21,-4%[5.75 µM]
CCn1c2ccccc2c2nnc(SCC(=O)c3ccccc3)nc21,-2%
Cc1ccccc1-c1noc(-c2ccccc2C(=O)N2CCCC2)n1,117%
C/C(Cl)=C/Cn1c(N2CCCC2)nc2c1c(=O)n(C)c(=O)n2C,40%
Cc1ccc(C2C(C#N)=C(N)Oc3c2sc2ccccc32)o1 (stereo unspecified),-16%
CC(C)(C)NC(=O)Cn1nnc(-c2ccc(S(C)(=O)=O)cc2)n1,4%
CC(C)CCSc1nc(N2CCOCC2)c2c(c1C#N)CC(C)(C)OC2,112%
CC(=NCC(=O)O)c1ccccc1,0%[5.75 µM]
O=C(Nc1scc(-c2ccc(F)cc2)c1C(=O)O)c1ccco1,?
CCOC(=O)N1CCN(CC(=O)Nc2c(C(=O)OC)[nH]c3ccc(Cl)cc23)CC1,88%
O=C(CCN1CCCC1)Nc1cccc(Br)c1,-3%
CC(=O)Nc1nc(C)c(Oc2ccccc2)c(=O)[nH]1,0%
O=C(CCCN1CCC(O)(c2cccc(C(F)(F)F)c2)CC1)c1ccc(F)cc1,5%
Cc1ccc(-n2c(SCC3CCCCO3)nnc2-c2ccco2)cc1 (stereo unspecified),60%
CC(C)NC(=O)N1CCCC2(CCN(C(=O)c3cccn3C)CC2)C1,0%
COc1cc(C2N(c3cccc(Cl)c3)C(=O)C3CCCN32)cc(OC)c1OC (stereo unspecified),45%
COc1ccc(-c2cc3ccccc3n2CC(O)CNC(CO)(CO)CO)cc1 (stereo unspecified),37%
CS(=O)(=O)N1CCC(C(=O)Nc2c(F)cccc2F)CC1,-2%
CCCCC,0%
COc1ccc(OC)c(CNC(=O)C2CCCN(c3nc4ccccc4o3)C2)c1 (stereo unspecified),86%
COC(=O)Cc1c(C)nc2nc(-c3ccccc3)[nH]n2c1=O,9%
Cc1ccc(NC(=O)CN(C)C(=O)CN2C(=O)NC(C)(c3ccccc3)C2=O)cc1 (stereo unspecified),49%
CCOC(=O)CCNC(=O)c1ccccc1Br,-4%
O=C(COC(=O)c1ccccc1O)Nc1ccc(OC(F)F)cc1,-24%
O=C(Cn1c(=O)[nH]n(-c2ccccc2)c1=O)N1CCCc2ccccc21,18%
CCOC(=O)N1CCN(C(=O)CSc2nnc(-c3cccc(Cl)c3)o2)CC1,6%
CC(=O)N[C@@H](c1ccccc1)[C@]1(C)C[C@H]1[C@@H](C)C(=O)Nc1ccc2ccccc2c1,111%
O=C(c1ccncc1)N1CCC2(CC1)CN(Cc1cc(C(F)(F)F)cc(C(F)(F)F)c1)C2,-6%
C[C@H](NC(=O)/C(C#N)=C/c1ccc(O)c(O)c1)c1ccccc1,-19%&-15%&-11%
N=C(N)SCc1cccc2c(=O)cc(-c3ccccc3)oc12,6%[5.75 µM]
Cn1nc(CC(=O)Nc2ccc3c(c2)CCC3)c2ccccc2c1=O,21%
CSc1nnc(NC(=O)C2CCCCC2)s1,14%
Cn1c(=O)n(C)c2cc(NC(=O)CSc3nnc(-c4ccccc4O)n3-c3ccccc3)ccc21,125%
CCC(NC(=O)c1ccccc1O)c1ccccc1 (stereo unspecified),-24%

Some of the entries so far, field by field.
canonical_smiles: COC(=O)Cc1c(C)nc2nc(-c3ccccc3)[nH]n2c1=O
  AmpC inh no det: 9%

canonical_smiles: Cc1ccc(NC(=O)CN(C)C(=O)CN2C(=O)NC(C)(c3ccccc3)C2=O)cc1 (stereo unspecified)
  AmpC inh no det: 49%

Other entries follow.
SMILES,AmpC inh no det
CCC(=O)Nc1cccc(NC(=O)CSc2nnnn2C)c1,-3%
Cc1ccc(Cl)cc1N1CCN(S(=O)(=O)c2c(C)[nH]c(=O)[nH]c2=O)CC1,?
C=CC(=O)OCCN(C)C,0%
N#C/C(=C(\O)c1ccco1)c1ccccn1,-3%
CC(=O)Nc1cc2nn(-c3ccccc3)nc2cc1Cl,13%
C(/C=C\c1ccccc1)=Nc1ccc2c(c1)Cc1ccccc1-2,-7%[5.75 µM]
Cc1ccc(NC(=O)C2CCCN2C(=O)Oc2ccccc2)cc1 (stereo unspecified),8%
C[C@@H](CN(C)C)CN1c2ccccc2Sc2ccccc21,31%[12.8 µM]
CSc1nc(C)c(Cl)c(C)c1C#N,-6%
O=C(NCCCn1ccnc1)c1cc(C2CC2)on1,-14%
CC(C)CN(CC#N)CC(C)C,9%[5.75 µM]
O=C(NCC(c1cccnc1)N1CCOCC1)c1cccs1 (stereo unspecified),-4%
CC(C)CCNC(=O)CCn1nc(-c2ccccc2)ccc1=O,15%
COc1cccc(-n2c(SCC(=O)Nc3cc(C)on3)nc3ccccc3c2=O)c1,16%
Cc1cccc2cc3c(NC(=O)C(C)C)nn(C)c3nc12,24%
Cc1[nH]n2c(=O)cc(C(C)(C)C)nc2c1-c1ccccc1,-10%
CCC(C)(C)NC(=O)C(c1cccn1C)N(C(=O)Cn1nnc2ccccc21)c1ccc(OC)cc1 (stereo unspecified),81%
Cc1nn2c3ccccc3nc2n(Cc2ccccc2)c1=O,-2%
COc1cc(CN2CCN(S(=O)(=O)c3ccc(NC(C)=O)cc3)CC2)cc(OC)c1O,31%
Cc1cc(F)ccc1NCc1ccncc1,10%
CC1CCC(NCCc2ccc3c(c2)OCO3)CC1 (stereo unspecified),-6%
COc1cc(OC)c(NC(=O)Nc2ccc(OC)c(OC)c2)cc1Cl,11%
CC(C)(C)C(O)(CCc1ccc(Cl)cc1)Cn1cncn1 (stereo unspecified),44%
COc1ccc(NC(=O)CSc2nnc(Cn3c(=O)sc4ccccc43)n2C)c(OC)c1,38%
CC(C)OCCCNC(=O)c1ccc(NC(=O)C2CCCO2)cc1 (stereo unspecified),17%
Cc1nc2ccccn2c1C(=O)NC1CCCCC1,16%
COc1ccc(-c2noc(COc3ccc4ccccc4c3Br)n2)cc1OC,-5%
FC(F)(F)c1ccccc1-c1cc(NCCN2CCOCC2)ncn1,11%
COc1ccc(N2CCN(C(=O)CN3C(=O)c4ccccc4S3(=O)=O)CC2)cc1,22%
COc1ncc2nc(-c3ccc(F)cc3)c(=O)n(Cc3cccs3)c2n1,-6%
COc1cccc(-c2nc(=S)c3c(n2CCCO)CCCC3)c1,40%
CCCCC(=O)Nc1ccc(NC(=O)CC)cc1OC,0%
CC1CCN(S(=O)(=O)c2ccc3c(c2)oc(=O)n3CC(=O)N2c3ccccc3CC2C)CC1 (stereo unspecified),17%
O=C(c1cc2ccccc2oc1=O)N1CCN(Cc2ccc3c(c2)OCO3)CC1,21%
COCCNC(=O)COC(=O)c1nsc(Cl)c1Cl,-9%
COCCCn1c(Cc2csc(Nc3cccc(Cl)c3)n2)nnc1SCC(=O)OC,134%
Cn1c(NCc2cccc(Br)c2)nc2ccccc21,-1%
COc1cc(C(=O)Nc2nccs2)ccc1OCc1c(C)noc1C,36%
CCOC(=O)C1CCN(CC(O)COc2ccc(C(=O)CC)cc2)CC1 (stereo unspecified),1%
COC(=O)CC1SCCNC1=O (stereo unspecified),-3%
CC1=CC(=O)OC1Cc1ccncc1 (stereo unspecified),1%
COc1ccc(Oc2ncc3nc(-c4cccc(C#N)c4)c(=O)n(C)c3n2)cc1,-6%
COC(=O)[C@@]1(Cc2ccc(OC)cc2)[C@H]2c3cc(C(=O)N(C)C)n(Cc4ccsc4Br)c3C[C@H]2CN1C(=O)c1ccccc1,136%
CCCn1c(SCC(N)=O)nnc1C(C)C,-16%
CN[C@@H]1C[C@H](c2ccc(Cl)c(Cl)c2)c2ccccc21,36%
Cc1sc2nc(SCC(=O)NCc3ccco3)n(CCc3ccccc3)c(=O)c2c1C,?
Cc1ccccc1NC(=O)c1c(-c2ccccc2)noc1C,0%
CCc1ccc(N(CC(=O)Nc2ccc(OC)cc2OC)S(C)(=O)=O)cc1,68%
COc1ccc(C(=O)C2CCN(C(=O)c3ccco3)CC2)cc1,36%
N#CC1=C2SCN(Cc3ccccc3)CN2C(=O)CC1c1cccs1 (stereo unspecified),-21%
O=C(NCCCN1CCOCC1)c1coc2ccccc2c1=O,-9%
CC1=C(C(=O)OC(C)C)C(/C=C/c2ccccc2)NC(=O)N1 (stereo unspecified),?
CS(=O)(=O)N1CCC(C(=O)NCC2CCCO2)CC1 (stereo unspecified),-3%
CC(=O)c1cccc(NC(=O)C2CCN(S(=O)(=O)c3c(C)n[nH]c3C)CC2)c1,-2%
COc1ccccc1S(=O)(=O)Cc1ccc(C(=O)NCc2cccnc2)o1,4µM*[single pt active]
Cc1cc(NC(=O)CSc2nnc(C3CC3)n2C)no1,1%
Cc1ccc(C2C(C(=O)c3cc4ccccc4o3)=C(O)C(=O)N2CCN2CCOCC2)o1 (stereo unspecified),0%
O=c1c2cc(Cl)ccc2nc2ccc(N3CCCC3)nn12,0%
O=C(Nc1ccccc1)N1CC[C@@]2(CCCNC2)C1,-3%
Cc1nc2cc(NC(=O)NCc3ccco3)ccc2o1,-9%

(list continues)
SMILES,AmpC inh no det
COc1ccc(C2C(C(=O)N3CCC4(CC3)OCCO4)CC(=O)N2c2ccc(OC)cc2)cc1 (stereo unspecified),80%
CCc1cc(C(=O)Cc2cnn(-c3ccccc3)c2)c(O)cc1O,-11%
CC1(C)C(c2cccs2)=NC(c2ccccc2)N1O (stereo unspecified),0%
COC(=O)c1ccccc1CCC(C)=O,-4%
[O-][n+]1c(CN2CCCCC2)nc2cccc3c2c1-c1ccccc1-3,-17%[5.75 µM]
CCC(C(=O)NC1CCCC1)N(C(=O)Cn1nnc(-c2ccc(OC)c(OC)c2)n1)C1CCCCC1 (stereo unspecified),110%
COc1ccc(-c2cc(C(F)(F)F)n3ncc(C(=O)NCc4ccco4)c3n2)cc1,5%
COc1ccccc1NC(=O)CSC1=NC(=O)C(NC(C)=O)C(=O)N1 (stereo unspecified),3%
Cc1nc(SCC(=O)Nn2c(-c3ccccc3)nc3ccccc3c2=O)n[nH]1,-9%
O=C(NC1(C(F)(F)F)NC(=O)N(Cc2ccco2)C1=O)c1cccs1 (stereo unspecified),-11%
NC(=O)NOC[C@@H]1NC(=O)NC1=O,-1%[5.75 µM]
O=C(Cn1c(NCCCO)nc2ccccc21)c1cccs1,3.2µM*[single pt active]
CCOc1ccc(C(=O)Nc2cccc(C)n2)cc1,8%
O=C(O)CP(=O)(O)c1ccc(Cl)cc1,0%
CC1Cn2c(nnc2C23CC4CC(CC(C4)C2)C3)S1 (stereo unspecified),6%
Cn1c(=O)c2cnc(N3CCOCC3)nc2n(C)c1=O,-10%
CC(C)(C(=O)O)c1ccc([C@@H](O)CCCN2CCC(C(O)(c3ccccc3)c3ccccc3)CC2)cc1,10%
CC1=C(C(=O)OCC2CCCO2)C(c2cccc(O)c2)NC(=O)N1 (stereo unspecified),-3%
Cc1cc(N2CCN(S(=O)(=O)c3ccccc3)CC2)c2ccccc2n1,91%
COC(=O)COc1cccc(NC(=O)c2cccs2)c1,-14%
Cc1cccc(/C=C\c2ccccc2)n1,54%&10%
COc1cc(OC)c(OC)cc1CNCCc1ccc(OC)c(OC)c1,-6%
CC(C)C[C@H](NC(=O)[C@@H](O)[C@@H](N)Cc1ccccc1)C(=O)O,-3%&-5%
CCC(=O)N/C(=N/c1nc(C)cc(C)n1)Nc1cccc(OC)c1,10%
O=c1c2ccccc2oc2nc(-c3ccco3)n(CCc3ccccc3)c(=O)c12,-5%
c1cncc(Nc2nc(-c3cccs3)cs2)c1,4%

Screening results as filed in PubChem.
